# RanGTP-Impb inh: disruptors of Ran-importin-beta complex formation – biochemical, FRET, CFP-Ran, YFP-importin-beta, homogeneous, primary screen; inhibition, % (test concentration not listed); AID 2216; 300,000 compounds, 1.1% hits; cell-free CFP-Ran/YFP-importin-beta FRET ratio;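 active = most replicates above 15%; inconclusive = exactly half above 15%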;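 note: 0% = DMSO wells and 100% = Ran loaded with GDP instead of GTP; wells of about 40 µL received 100 nL stock; the first replicate is given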
# AF4-AF9 inh: inhibitors of human MLL-AF4/AF9 interaction; inhibition, % at 10 µM; AID 651704; AlphaScreen, biotin-AF4 peptide binding to FLAG-AF9; 350,000 compounds, 0.47% hits; P42568;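 active = every replicate reaching a set inhibition limit, whatever the replicate mean, cut at about 25% in these data; inconclusive = mean inhibition reaches that limit but some replicates miss it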;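 note: 0% = plate neutral control median and 100% = total signal loss; the record names both 10 and 1 µM as test concentration; the first replicate is given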
# HNF4A DNA FP: change in binding of human HNF4 alpha to DNA; AID 1224865; 360,000 compounds, 0.3% hits; activity change, % at 10 µM; P41235; HNF4a-FITC DNA binding, fluorescence polarization, 1 h; in the data active = activity change above about 30%, passing the limit was not always enough;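 note: controls were the assay level and a saturating level of protein; the project sought stronger binding though the title names inhibitors; some compounds called inactive have numbers as strong as hits; positive values seem to mean higher polarization but the record does not say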
# Target sequence (P41235 whole entry, looked up): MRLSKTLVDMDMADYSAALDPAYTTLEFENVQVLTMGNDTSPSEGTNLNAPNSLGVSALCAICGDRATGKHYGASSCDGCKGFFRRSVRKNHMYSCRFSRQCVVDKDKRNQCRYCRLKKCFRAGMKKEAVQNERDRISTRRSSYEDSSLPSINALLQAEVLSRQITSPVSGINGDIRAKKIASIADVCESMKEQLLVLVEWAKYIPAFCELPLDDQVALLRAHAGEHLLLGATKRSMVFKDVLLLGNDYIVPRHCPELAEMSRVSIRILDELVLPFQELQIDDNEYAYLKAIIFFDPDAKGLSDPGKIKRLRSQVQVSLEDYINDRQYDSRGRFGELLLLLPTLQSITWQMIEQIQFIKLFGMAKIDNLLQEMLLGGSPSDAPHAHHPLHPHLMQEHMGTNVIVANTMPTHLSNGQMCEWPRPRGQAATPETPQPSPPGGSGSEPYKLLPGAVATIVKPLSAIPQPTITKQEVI
# Vif A3G: inhibitors of Vif binding to APOBEC3G peptide, primary screen, biochemical, TR-FRET, GST-Vif 1-94, biotin-A3G peptide, dose response retest (AID 1117319); inhibition, %, or IC50 in µM where a hit was titrated; TR-FRET GST-Vif / biotin-A3G peptide binding; higher % means a stronger effect; test concentration not given here; strong numbers were not always called active; 260,000 compounds, 0.57% hits;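 active = above the screen mean plus three standard deviations and confirmed in dose response; inconclusive = results disagree or hit not tested in dose response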;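 note: Vif residues 1-94 fused to GST binding biotinylated APOBEC3G peptide 110-148; 0% = full assay without inhibitor and 100% = GST in place of GST-Vif; retest series ran down from 100 µM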
# UCH37 DUB inh: inhibitors of human deubiquitinating enzyme UCH37; Q9Y5K5; purified proteasome/UCH37, Ub-AMC cleavage fluorescence; inhibition, % (test concentration not listed); 330,000 compounds, 0.33% hits;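 active = mean of two replicates above 20%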;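 note: 0% = compound-free wells with enzyme and 100% = wells lacking proteasome; stock transfer was 100 nL into about 20 µL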
# Target sequence (Q9Y5K5 whole entry, looked up): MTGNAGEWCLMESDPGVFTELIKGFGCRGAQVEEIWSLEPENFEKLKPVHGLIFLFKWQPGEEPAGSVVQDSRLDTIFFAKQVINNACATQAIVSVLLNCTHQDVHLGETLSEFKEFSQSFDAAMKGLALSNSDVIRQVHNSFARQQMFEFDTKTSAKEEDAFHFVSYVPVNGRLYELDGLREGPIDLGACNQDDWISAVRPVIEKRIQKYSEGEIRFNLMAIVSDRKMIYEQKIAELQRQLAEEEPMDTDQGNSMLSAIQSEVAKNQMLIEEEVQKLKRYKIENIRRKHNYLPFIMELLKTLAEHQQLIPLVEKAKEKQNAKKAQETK
#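 Material: human UCH37 enzyme supplied as purified proteasome complex. Measure: % inhibition of Ub-AMC cleavage fluorescence. Medium: pH 7.4 Tris-HCl (50 mM) with ovalbumin, ATP-MgCl2, DTT. Times: 30 min preincubation with enzyme, 25 min cleavage at room temperature. Detection: AMC fluorescence intensity at 355/460 nm.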
# E coli growth: inhibitors of Escherichia coli growth; OD600, 23 h; hits give low values; OD600 absorbance (no concentration beside the values); 330,000 compounds, 0.21% hits;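 active = OD600 absorbance below the run mean of sample wells minus 3.6 SD, in any replicate, cut at about 0.56 in these data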;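 note: stock transfer was 300 nL into about 60 µL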
# FGF22 binding: binders of recombinant human FGF22 by thermal shift; calls only at 9.99 µM; SYPRO orange fluorescence; percent of sucrose octasulfate shift, DMSO zero; Q9HCT0; 340,000 compounds, 1.5% hits;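 active = melting point raised past a set limit in the mean and every replicate; inconclusive = no clear call; three in four hits are not shown here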
# Target sequence (Q9HCT0 whole entry, looked up): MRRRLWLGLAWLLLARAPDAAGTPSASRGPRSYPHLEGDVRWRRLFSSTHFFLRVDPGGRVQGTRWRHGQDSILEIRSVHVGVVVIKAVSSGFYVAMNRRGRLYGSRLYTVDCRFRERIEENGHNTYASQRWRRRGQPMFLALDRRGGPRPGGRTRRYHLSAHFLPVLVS
# * = called active by the depositor; i = inactive; ? = inconclusive; / = no result given; & = joins results of further samples.
# The first four entries, to show the layout:
RanGTP-Impb inh	AF4-AF9 inh	HNF4A DNA FP	Vif A3G	UCH37 DUB inh	E coli growth	FGF22 binding	structure
-2.5	0.7	3.6	7.1%	6.5	0.697	i	CCOC(=O)c1cc2c(C)[nH]c(C)c2cc(C(=O)OCC)c1=O
-4.3	0.0	0.3	2.5%	5.0	0.671	/	O=C(CN1CCN(Cc2ccc3c(c2)OCO3)CC1)Nc1ccc(N2CCOCC2)cc1
7.9	-5.0	3.8	/	1.7	0.695	i	CC(C)NC(=O)C1(S(=O)(=O)c2ccccc2)CC=CC1
2.8	0.3	-1.3	/	-0.1	0.676	i	CCOC(=O)C1CCN(C(=O)CSc2nc3ncccc3[nH]2)CC1

# This part in full, from the first entry:
RanGTP-Impb inh	AF4-AF9 inh	HNF4A DNA FP	Vif A3G	UCH37 DUB inh	E coli growth	FGF22 binding	structure
-2.5	0.7	3.6	7.1%	6.5	0.697	i	CCOC(=O)c1cc2c(C)[nH]c(C)c2cc(C(=O)OCC)c1=O
-4.3	0.0	0.3	2.5%	5.0	0.671	/	O=C(CN1CCN(Cc2ccc3c(c2)OCO3)CC1)Nc1ccc(N2CCOCC2)cc1
7.9	-5.0	3.8	/	1.7	0.695	i	CC(C)NC(=O)C1(S(=O)(=O)c2ccccc2)CC=CC1
2.8	0.3	-1.3	/	-0.1	0.676	i	CCOC(=O)C1CCN(C(=O)CSc2nc3ncccc3[nH]2)CC1
/	-1.8	1.0	/	0.3	0.695	i	CCOC(=O)N1CCN(c2ccc(S(=O)(=O)N3CCOCC3)cn2)CC1
-5.6	/	0.7	2.2%	-2.1	0.666	/	Cc1cc(NCCCn2ccnc2)n2nc(C)c(-c3ccccc3)c2n1
3.6	/	2.8	5.7%	5.7	0.668	/	Nc1ccccc1Sc1ccccc1[N+](=O)[O-]
1.5	/	-12.3	?	-22.9	0.693	/	COc1cc(NC(=O)c2cc3nc(C4CC4)cc(C(F)(F)F)n3n2)c(OC)cc1Cl
9.2	/	1.4	-0.3%	1.0	0.706	/	COc1cccc(Cn2nnc(C(=O)Nc3cc(C)ccc3OC)c2N)c1
3.2	/	-2.3	-6.8%	-57.0	0.667	/	Cc1cccc2cc(C#N)c(N3CCN(C)CC3)nc12
-0.6	-3.4	-0.9	/	-26.4	0.713	i	CCN1CCSc2ccc(C(=O)NCc3ccc(OC(C)C)cc3)cc21
2.6	2.3	3.4	/	3.1	/	i	CCC1=C(OC(=O)N(CC)CC)N2C(=O)OC(=NCc3ccccc3)[C@]2(C)[C@H]2C1=CC[C@H]1C(=O)NC(=O)[C@H]12
4.3	-1.5	1.2	-0.4%	0.7	0.735	i	CCCC(=O)OCC(=O)Nc1ccc2c(c1)OCO2
1.4	0.0	1.8	-1.0%	0.7	0.646	i	CC(=O)N=c1sccn1CC(O)c1ccccc1 (centres undefined)
5.1	/	-2.8	-0.2%	-0.4	0.719	/	Cc1cc(Nc2ccccc2)nn1C(=O)c1ccc(Br)cc1
1.6	-0.9	1.4	-2.2%	-4.1	0.646	i	Cc1[nH]c(=O)c(S(=O)(=O)c2ccccc2)c(C)c1Cl
-0.5	-0.9	-0.1	-3.9%	1.0	0.684	i	Cc1ccc(C(=O)CSc2nnc3ccccn23)c(C)c1
-1.7	9.4	2.1	0.0%	/	/	i	Cc1ccc(/C=N/NC(=O)c2ccoc2C)s1
-0.2	?	-4.3	0.4%	1.3	0.701	i	COCCn1c(SCc2cccc([N+](=O)[O-])c2)nc2ccccc2c1=O
-3.3	0.7	0.7	1.3%	-0.4	0.676	i	COc1cc(CO)ccc1OCc1ccc(Cl)nc1
?	/	-2.3	-5.0%	2.8	0.651	/	Cc1c(CCOC(=O)CC23CC4CC(CC(C4)C2)C3)sc[n+]1Cc1ccccc1
/	-0.9	1.0	-4.7%	4.5	0.691	i	O=C(c1ccccc1)N1CCN(c2ccccc2)CC1
-2.2	0.5	3.3	/	1.4	0.681	i	CC(=O)Nc1ccc(N/C(N)=N/c2nc(C)cc(C)n2)cc1
3.3	-3.1	-1.4	-2.2%	6.8	0.662	i	CC(C)NC(=O)NNC(=O)c1nn(-c2ccc(F)cc2)ccc1=O
4.2	-4.6	-2.0	3.6%	3.6	0.608	i	O=Cc1c(NCc2ccccc2Cl)c2ccccc2[nH]c1=O
3.5	1.9	-1.0	/	1.5	0.665	i	COc1ccc(-n2cnc3ccccc3c2=O)c([N+](=O)[O-])c1
2.9	1.4	6.3	8.6%	3.6	0.725	i	CCCC(C)C(=O)Nc1nc(C)c(-c2csc(Nc3ccccc3OC)n2)s1 (centres undefined)
6.0	/	19.2	/	4.5	0.742	/	NC(=O)CC(NC(=O)Cc1cccc2ccccc12)c1ccc(NCCc2ccc(F)cc2)c([N+](=O)[O-])c1 (centres undefined)
-3.1	1.2	3.0	/	6.5	/	i	CC(=O)Nc1ccc(-c2sc(Nc3cccc4ccccc34)n[n+]2-c2ccccc2)cc1
0.3	2.1	1.1	/	8.8	0.621	i	Cc1nnc(N2C(=O)C(=O)/C(=C(/O)c3ccc4c(c3)CC(C)O4)C2c2ccccc2F)s1 (centres undefined)
-1.0	-5.8	-4.7	0.8%	1.8	0.631	i	O=C(Nc1ccc2c(c1)CCC2)c1ccccc1
4.9	0.0	-0.1&-2.2	?	3.2&3.0	0.67&0.72	i	C/C(N)=C(/C#N)C(=O)CSc1nnc(Nc2cccc(C)c2C)s1
/	-5.4	-2.3	-13.8%	-0.1	0.657	i	Cc1ccc(NS(=O)(=O)c2ccc3c(c2)CC(=O)N3)cc1F
3.2	-2.8	3.4	-7.3%	-0.5	0.66	i	COc1ccccc1C(=O)Nc1ccnn1C1CCN(Cc2ccccc2OCCO)CC1
4.1	-6.8	2.4	/	0.9	0.706	i	CC(C)(CNC(=O)c1ccc(Br)o1)N1CCOCC1
-2.1	/	-1.0	-2.6%	2.2	0.692	/	O=C(NC(=S)NCCN1CCOCC1)c1ccccc1Cl
-1.8	-4.3	0.0	/	0.4	0.703	i	O=S(=O)(N1CCCCC1)N1CCN(c2cc(Cl)ccc2Cl)CC1
7.6	1.4	2.9	/	2.3	0.719	i	Cc1ccccc1NC(=S)Nc1cccc2cnccc12
/	-2.8&0.3	3.2	-2.2%	/	/	i	C[C@H](CO)N1C[C@H](C)[C@H](CN(C)S(=O)(=O)c2ccccc2C#N)OCc2cnnn2CCCC1=O
0.6	/	0.4	-6.3%	/	/	i	Cc1nn(C(C)(C)C)c(C)c1/C=N/OC(=O)Nc1ccc(Cl)cc1
1.7	3.3	-3.2	-82.6%	-234.0	0.696	i	COc1ccc(C(=O)N=c2sc3c(C)ccc(OC)c3n2C)cc1OC
-6.6	3.1	0.0	1.7%	5.7	0.692	i	CCC(C)NC(=O)c1ccc2c(Cl)c3c(nc2c1)CCC3 (centres undefined)
2.9	-8.0	0.4	3.2%	1.1	0.681	i	CC(=O)c1cccc(CN2CCC(CO)(CCCc3ccccc3)CC2)c1
1.1	-0.4	-0.8	-2.8%	0.1	0.668	i	CC(=O)c1cccc(NC(=S)N2c3ccccc3CC2C)c1 (centres undefined)
-3.3	1.5	2.6	/	1.5	0.688	i	FC(F)(F)c1ccccc1NC(=S)N1CCN(Cc2ccc3c(c2)OCO3)CC1
1.7	/	-1.4	1.9%	-5.6	0.702	/	COc1ccccc1-c1nnc(N(C)C(=O)C2CCCO2)s1 (centres undefined)
3.7	0.8	2.6	-1.9%	-0.9	0.686	i	CC1CCN(CCCNC(=O)c2cc3c(=O)n(C)c4ccccc4c3n2C)CC1
-2.0	-1.6	-4.9	5.2%	0.7	0.681	i	C=CCNC(=O)c1ccccc1NC(=O)c1ccccc1N(C)S(C)(=O)=O
0.8	4.6	2.2	/	4.9	0.651	i	CC(C)(CO)NCc1c(OCc2ccc(Cl)cc2)ccc2ccccc12
-1.7	/	-1.6	10.2%	4.8	0.728	/	O=C(CCCN1C(=O)CCC1=O)Nc1ccc2c(c1)OCO2
/	4.7	-1.4	-7.7%	1.1	0.667	/	NC(=O)C1=C(N=C2CCCCC2)CCCC1
2.5	0.5	3.6	/	2.9	0.688	i	COc1cc(OC)cc(C(=O)Nc2ccccc2S(=O)(=O)N2CCCC2OC(C)=O)c1 (centres undefined)
-1.0	-4.0	0.1	/	-1.9	0.722	i	CN(Cc1ccccc1F)c1nc(-c2cccs2)nc2ccccc12
0.6	-3.1	1.8	30.6%	1.9	0.707	i	CCN(CC)C(=O)C1CCN(C(=O)c2oc3ccc(C)cc3c2C)CC1
1.3	/	2.6	/	2.2	0.702	/	COc1ccc(NC(=S)NNC(=O)C2CC2c2ccc(C)cc2)cc1 (centres undefined)
-3.2	-0.6	-0.3	/	/	/	/	O=C(NCC1CCCO1)c1ccccc1OCc1ccc(Cl)cc1 (centres undefined)
-3.5	/	-3.7	-1.4%	3.9	0.729	/	CCOc1cccc2c1OC1(C)CC2NC(=O)N1c1ccc(OC)cc1 (centres undefined)
/	-0.8	4.5	-3.7%	-0.9	0.686	i	CC1CCCCC1NC(=O)COc1ccc(C#N)cc1 (centres undefined)
2.8	-3.2	0.2	-1.8%	2.2	0.721	i	COC(=O)c1cc(S(=O)(=O)NCCCc2ccco2)c[nH]1
-2.0	-13.1	-2.5	/	1.9	0.725	i	Cc1ccc2oc(C(=O)NCCC3CCCCO3)c(C)c2c1 (centres undefined)

# Later entries.
RanGTP-Impb inh	AF4-AF9 inh	HNF4A DNA FP	Vif A3G	UCH37 DUB inh	E coli growth	FGF22 binding	structure
-0.5	1.9	-2.9	?	2.3	0.744	i	Cn1cnnc1SCC(=O)Nc1cc(S(=O)(=O)N2CCCCC2)ccc1Cl
5.6	/	0.7	-1.6%	4.8	0.716	/	Cc1sc(NC(=O)C2CCCCC2C(=O)O)c(C(N)=O)c1-c1ccc(C(C)(C)C)cc1 (centres undefined)
0.8	1.6	0.2	-1.6%	4.5	0.719	i	CCCn1c(C(O)c2ccc3c(c2)OCO3)nc2ccccc21 (centres undefined)
0.3	1.0	0.1	/	-0.7	0.715	i	CCC(C(=O)NCc1ccncc1)c1ccccc1 (centres undefined)
-1.3	/	15.2	-9.5%	1.1	0.682	/	CCC(C)NC(=O)c1csc2c1CCCCC2 (centres undefined)
-2.2	/	-0.9	13.5%	1.7	0.671	/	CCN(CC)CCOc1ccc(Br)cc1
-5.6	/	1.0	12.4%	-2.1	0.733	/	Nc1ncc(Br)cc1S(=O)(=O)NCCC(=O)N1CCN(c2ncccn2)CC1
-5.1	1.4	1.9	/	19.0	0.644	i	CC1=NN(C(N)=S)C(=O)C1N=Nc1c(Cl)cc([N+](=O)[O-])cc1Cl (centres undefined)
?	/	4.3	5.0%	4.6	0.742	/	CC(C)Cn1c(-c2cc([N+](=O)[O-])ccc2Cl)nc2c1c(=O)[nH]c(=O)n2Cc1ccccc1
?	2.8	37.2*	3.4%	3.8	0.675	i	CCOC(=O)C1CCCN(Cc2nc3ccc([N+](=O)[O-])cc3c(=O)n2-c2ccc(OC)cc2OC)C1 (centres undefined)
0.1	-2.1	2.4	/	/	/	i	C/C(=N\NC(=O)c1cc2ccccc2cc1O)c1ccc(C)o1
-0.2	-12.3	-0.3	-4.7%	3.9	0.688	i	Cn1ccnc1SCC(=O)c1c[nH]c2ccccc12
0.2	0.0	2.7	/	-2.0	0.681	/	COC(=O)COc1ccc(S(=O)(=O)N2CCCCC2)cc1[N+](=O)[O-]
?	/	1.9	22.4%	2.1	0.699	/	O=C(Cn1cnc2scc(-c3ccccc3)c2c1=O)N1CCOCC1
/	-0.9	1.5	/	1.0	0.691	i	CCN(c1ccccc1)S(=O)(=O)c1ccc(C(=O)NCC(=O)Nc2ccc(F)c(F)c2F)cc1
7.5	/	0.0	?	2.2	0.616	/	O=S(=O)(c1ccc(Cl)s1)N1CCN(C/C=C/c2ccccc2)CC1

# The list is partial; count on the stated rates, not on these rows.
